Source: PubChem
GALR2 agonist – activates the human galanin receptor 2; activation, %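 (tested at 5 µM)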; O43603; AID 803; 0.48% of 140,000 active; GALR2-expressing cells, agonist activation read-out;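 active = above mean plus 3 SD of all compounds, about 5% in these data, not always enough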;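 also: 0% = vehicle buffer wells and 100% = reference agonist at full effect; tested in CHO reporter cells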
Target sequence (O43603 whole entry, looked up): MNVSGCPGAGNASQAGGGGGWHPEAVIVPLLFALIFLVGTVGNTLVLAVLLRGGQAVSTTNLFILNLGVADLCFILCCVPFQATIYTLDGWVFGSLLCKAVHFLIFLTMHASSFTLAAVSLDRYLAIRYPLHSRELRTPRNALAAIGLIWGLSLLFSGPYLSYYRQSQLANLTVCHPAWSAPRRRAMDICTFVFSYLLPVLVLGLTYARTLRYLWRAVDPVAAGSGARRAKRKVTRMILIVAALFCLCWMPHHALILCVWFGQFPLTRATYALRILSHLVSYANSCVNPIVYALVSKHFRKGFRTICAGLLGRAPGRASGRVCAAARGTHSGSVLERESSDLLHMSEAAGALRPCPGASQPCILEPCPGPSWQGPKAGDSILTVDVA
RGS16-Gao – regulators of human RGS16-Galphao interaction. O15492+P09471. 0.38% of 220,000 active. bead-based flow cytometry RGS16-Galphao binding, fluorescence; actives lie on both sides. binding response (% of control), % at 10 µM;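 active = below 25% or above 175%, edge rows of some plates excepted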;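 also: Galphao activated by GDP with aluminum fluoride before binding; 100% = wells without compound and 0% = beads without RGS; some results beyond the cut were filed as inactive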
Target sequence (O15492 whole entry, looked up): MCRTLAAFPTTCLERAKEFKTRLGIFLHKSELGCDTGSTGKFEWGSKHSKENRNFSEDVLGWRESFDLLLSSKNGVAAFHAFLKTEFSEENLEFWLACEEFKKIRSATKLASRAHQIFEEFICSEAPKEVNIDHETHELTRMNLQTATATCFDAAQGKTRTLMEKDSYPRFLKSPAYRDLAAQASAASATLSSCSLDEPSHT
Target sequence (P09471 whole entry, looked up): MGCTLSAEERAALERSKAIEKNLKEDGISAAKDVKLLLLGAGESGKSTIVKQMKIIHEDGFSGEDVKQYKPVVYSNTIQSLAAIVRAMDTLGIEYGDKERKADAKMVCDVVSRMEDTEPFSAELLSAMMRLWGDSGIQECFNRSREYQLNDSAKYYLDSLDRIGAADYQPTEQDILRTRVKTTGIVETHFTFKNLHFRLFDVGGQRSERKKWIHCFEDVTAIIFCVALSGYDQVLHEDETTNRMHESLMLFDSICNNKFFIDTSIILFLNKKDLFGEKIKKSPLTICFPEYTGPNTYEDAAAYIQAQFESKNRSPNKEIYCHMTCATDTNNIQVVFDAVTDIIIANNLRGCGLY
INS promoter inh – TRM-6 insulin promoter activity inhibition. TRM-6 cells (human fetal islet line), insulin promoter-eGFP reporter, imaging; reporter expression induced with tamoxifen. inhibition, % at 2 µM. 0.9% of 130,000 active;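 active = inhibition above the mean plus 3 SD, with well images judged a real hit on visual review, cut at about 60% in these data, passing the limit was not always enough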
HSV augment – HSV replication enhancement; HSV replication augmentation in cells, fold increase; maximum fold increase; 0.005% of 220,000 active; AID 1956;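 active = peak rise of 1.5-fold or more in the series; tested in PC3 cells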;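 also: first round at 10 µM; read as green reporter fluorescence; hits show the peak of a series up to 25 µM; 1 = signal of infected wells without compound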
PKD1 inh – inhibitors of human PKD1 kinase | Q15139 | PKD1 kinase fluorescence polarization assay | inhibition, %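 (about 10 µM by stock and volumes)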 | 0.056% of 200,000 active;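 active = inhibition of 50% or more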;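 also: controls were vehicle for no effect and a reference inhibitor for full effect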
INS promoter inh cell count – also measured in INS promoter inh; calls as there; normalized cell count, %; measured here: cell count, toxicity; reference of the scale not given here;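 cells exposed to compound for 48 h; stained nuclei by imaging scaled within each plate; lower means fewer cells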
HSV augment primary fold – recorded beside HSV augment, whose call it bears; fold increase; compound at 10 µM; measured here: primary screen fold increase 10 uM; tested in PC3 cells;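 GFP signal in the first replicate; 1 = infected wells without compound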
* = called active by the depositor; i = inactive; / = no result given; & = joins results of further samples.

SMILES	GALR2 agonist	RGS16-Gao	INS promoter inh	INS promoter inh cell count	HSV augment	HSV augment primary fold	PKD1 inh
Cc1ccc(C(=O)Nc2nc3nc(-c4ccccc4)cc(=O)n3[nH]2)cc1	-1.0	97	-41	164	i	1	-1
CC(C)CC(=O)Nc1ccc(Nc2ccccc2)cc1	0.1	108	-31	137	i	0.67	1
CCNc1nc(NC(C)C)nc(Nn2cnnc2)n1	0.8	101	24	35	i	1.2	-9
O=C(CCc1ccccc1)Nc1ccccc1C(=O)N1CCOCC1	/	107	/	/	i	1.1	-2
O=C(Cn1cnc2ccccc2c1=O)NC1CCCc2ccccc21 (stereo not given)	-1.7	91	/	/	i	0.93	2
Cc1c(-c2ccncc2)oc2ccc(Br)cc2c1=O	/	101	/	/	i	0.99	-7
NC(=S)NC1CCS(=O)(=O)C1 (stereo not given)	/	98	-40	102	i	1.1	1
CN(C)C(=O)N1CCCC(C(=O)NCc2ccc(F)cc2Cl)C1 (stereo not given)	-1.3	119	6	120	i	0.88	-7
O=C(O)CSCC(=O)Nc1ccc(C(F)(F)F)cc1	/	100	/	/	i	0.83	-5
Cc1cc(NC(=O)CN2C(=O)CCSc3ccccc32)no1	/	98	31	76	i	1	1
O=C(Nc1cccc(C(F)(F)F)c1)n1cc(-c2ccccn2)c(N2CCOCC2)n1	/	105	-9	158	i	0.96	0
CCN1CCN(S(=O)(=O)Cc2ccccc2)CC1	-2.8	105	-19	92	i	1.1	-1
Cc1ccc(NC(=O)C(=O)NCC2CCN(C(=O)c3cccc([N+](=O)[O-])c3)CC2)cc1	/	98	/	/	i	1.1	5
Cn1ccnc1SCC(=O)Nc1ccccc1	-2.9	99	8	102	i	1	-1
COCCN1Cc2cccc(C(=O)NC(C)c3cccs3)c2C1=O (stereo not given)	-1.8	105	/	/	i	0.89	-1
CCCc1cc(=O)[nH]c(SCC(=O)N2CCN(c3ccccc3)CC2)n1	-0.8	101	17	155	i	0.87	-3
O=C(NC(=S)N1CCN(c2ccccn2)CC1)c1ccccc1	-1.4	110	6	100	i	0.87	6
COc1cc2c(cc1OC)-c1c(OC)c(OC)cc3ccnc(c13)C2=O	2.7	91	9	90	/	/	30
Cc1ccc(S(=O)(=O)NCCc2ccc(S(N)(=O)=O)cc2)cc1	-0.7	99	-18	119	i	0.86	3
O=C(NCCCc1ccccc1)C1CCN(c2nnc(-n3cccc3)s2)CC1	-2.8	100	/	/	i	0.84	2
Cc1cc(C)cc(NC(=O)c2ccc(CNc3c(N4CCOCC4)c(=O)c3=O)cc2)c1	-3.1	103	/	/	i	1	-4
CNC(=O)/C(C#N)=C1\SC(Cc2ccc(F)cc2)C(=O)N1c1ccccc1C (stereo not given)	/	99	/	/	i	1.1	/
Cc1cc(C)c(C#N)c(SCc2cc3c(cc2Cl)OCO3)n1	-0.1	101	14	100	i	0.91	-2
CCNC(=O)NC1(C(=O)Nc2ccc3c(c2)CCC3)CCCCC1	-2.0	94	9	85	i	0.85	-1
O=C(NCc1ccco1)c1ccc(COc2ccc(Cl)cc2)cc1	-0.6	12*	-30	106	i	1.1	-3
Cc1ccc([N+](=O)[O-])cc1NC(=O)CCSc1ccc(Cl)cc1	-0.5	100	47	67	i	0.92	2
O=C(CC1SC(=O)N(c2ccccc2)C1=O)Nc1cccc2ccccc12 (stereo not given)	/	95	/	/	i	1	/
COCCn1c(-c2ccco2)csc1=Nc1cccnc1	-2.6	91	26	163	i	1	0
COc1ccc(N/N=C2/CCCCC2=O)cc1	1.0	64	30	101	i	0.74	-5
CCCOP(=O)(c1ccc(N(C)C)cc1)C(Nc1ccccc1)c1ccc(C)cc1 (stereo not given)	/	93	/	/	i	0.99	/
COC(=O)N/N=C/C1=CCC2CC1C2(C)C (stereo not given)	/	95	/	/	i	1.1	-8
Oc1ccccc1/C=N/N1CCCCC1	/	103	/	/	i	1	2
CCN(CC)c1ccc(NC(=O)CSc2ccsc2[N+](=O)[O-])c(C)c1	-0.3	93	0	102	i	0.97	-7
O=c1c2c3c(sc2nc2n1N=C(c1cccs1)CS2)CCCC3	-2.0	98	/	/	i	1.1	8
CC(C)c1nc(CN2CCCCC2)cc(=O)[nH]1	/	91	-5	109	i	0.97	-1
CCCCCC(=O)NNC1=NCC(Cc2ccccc2)S1 (stereo not given)	/	101	-8	102	i	0.66	-6
CSc1nc(N)nc(SCC(=O)C(C)(C)C)c1C#N	-2.4	91	43	68	i	0.87	-2
Cc1ccc(-c2csc(=S)n2CC(=O)OCC(=O)NCc2ccc(F)cc2)cc1	-1.4	95	/	/	i	1.1	-11
Cc1ccc(NC(=O)N[C@H](C(=O)O)C(C)C)c(C)c1	/	93	/	/	i	0.98	/
Cc1ccc(N(C(=O)Nc2ccccc2)C2=NCCC2)cc1	/	54	/	/	i	1.1	/

RGS16-Gao: entries above that show a hit
| molecule | GALR2 agonist | RGS16-Gao | HSV augment | HSV augment primary fold | PKD1 inh |
| --- | --- | --- | --- | --- | --- |
| O=C(NCc1ccco1)c1ccc(COc2ccc(Cl)cc2)cc1 | -0.6 | 12* | i | 1.1 | -3 |

Following part.
SMILES	GALR2 agonist	RGS16-Gao	INS promoter inh	INS promoter inh cell count	HSV augment	HSV augment primary fold	PKD1 inh
COc1ccc(-c2nc3ccccc3n2Cc2ccc(C)cc2)cc1	0.0	105	24	105	i	1.1	-3
COc1cc(-c2nn3c(-c4cccnc4)nnc3s2)cc(OC)c1OC	0.9	111	14	130	i	0.95	1
CCCC1C2CN(C(C)=O)CC=C2C(C#N)=C(N)C1(C#N)C#N (stereo not given)	-0.2	104	/	/	i	0.89	-6
CC(=O)Nc1ccc(NC(=O)C2CCN(S(=O)(=O)c3cccc4nonc34)CC2)cc1	-1.2	90	2	91	i	1	-1
Cc1cc(C)cc(OCC(=O)OCC(=O)NCCC2=CCCCC2)c1	-0.9	100	/	/	i	0.92	-2
O=C(O)CSCc1nc2ccccc2[nH]1	/	99	-14	108	i	1	-7
Cc1ccc(OCC(O)CNS(=O)(=O)c2ccccc2C(=O)N2CCCCC2)cc1 (stereo not given)	-2.5	101	-12	78	i	0.89	5
CC(=O)C1=C(c2ccccc2)OC(N)=C(C#N)C1c1ccccc1C (stereo not given)	-0.2	103	-43	81	i	1	-9
CCn1c(SCC(=O)O)nnc1-c1cccnc1	/	101	/	/	i	0.98	-4
CCC(=O)N1c2ccc(S(=O)(=O)CCC(=O)N3CCN(c4ccccc4)CC3)cc2CC1C (stereo not given)	-3.0	105	-44	117	/	/	-6
O=C(CSc1ccccn1)Nc1cccc2ccccc12	/	100	-23	63	i	1	2
CCCc1nc(-c2ccccc2O)n(-c2ccccc2)n1	-2.6	90	10	108	i	0.84	-3
Oc1c(Cl)cc(Cl)cc1C=Nc1ccccc1N1CCCC1	-1.0	104	19	77	i	1.3	0
COc1cc2c(cc1OC)C(C(=O)O)C(c1ccc(C)o1)N(C)C2=O (stereo not given)	-2.4	96	/	/	i	1	5
C=CCCC(=O)Nc1nc(C)c(-c2csc(Nc3cc(OC)ccc3OC)n2)s1	1.1	102	-16	109	i	0.56	-6
S=C(NCc1ccco1)N/N=C/c1ccncc1	/	95	/	/	i	1	/
O=C(Nc1ccccc1)Nc1cccc2ccccc12	/	90	/	/	i	0.94	/
COc1ccc(/C=N/N=C(\N)c2nonc2N)cc1OC	/	103	19	98	i	0.9	1
O=C(COc1ccccc1)OC(C(=O)c1ccccc1)c1ccccc1 (stereo not given)	-2.1	94	/	/	i	0.87	-9
Cc1nn(-c2ccccc2)c(Cl)c1/C=N/NC(=O)c1ccccc1F	/	94	/	/	i	0.94	/

Structures from the list above with a thiophene ring, fused or not (3):
SMILES	GALR2 agonist	RGS16-Gao	INS promoter inh	INS promoter inh cell count	HSV augment	HSV augment primary fold	PKD1 inh
COCCN1Cc2cccc(C(=O)NC(C)c3cccs3)c2C1=O (stereo not given)	-1.8	105	/	/	i	0.89	-1
CCN(CC)c1ccc(NC(=O)CSc2ccsc2[N+](=O)[O-])c(C)c1	-0.3	93	0	102	i	0.97	-7
O=c1c2c3c(sc2nc2n1N=C(c1cccs1)CS2)CCCC3	-2.0	98	/	/	i	1.1	8

Following part:
SMILES	GALR2 agonist	RGS16-Gao	INS promoter inh	INS promoter inh cell count	HSV augment	HSV augment primary fold	PKD1 inh
COc1ccc(NC(=S)N(CCN2CCCCC2)Cc2ccco2)cc1	/	97	-27	107	i	0.97	8
CC(=O)NCCOc1ccc(C(=O)O)cc1	-1.8	103	-29	131	i	0.94	-1
C/C(CCc1ccccc1)=N\NC(=O)CCc1ccccc1	0.0	105	0	84	i	1	-5
CC(=O)c1c(C)[nH]c(C(=O)COC(=O)c2cccc(S(=O)(=O)N(C)c3ccccc3)c2)c1C	0.0	99	-7	78	i	1	-1
CCOc1nc2ccccc2cc1C=O	/	97	/	/	i	0.95	4
c1cnc(N2CCN(Cc3ccc4c(c3)OCO4)CC2)nc1	-0.8	102&104	-314	42	i	0.7&1	0
c1ccc(-c2n[nH]c3ccccc23)cc1	-1.8	114	-135	89	i	1.1	90*
Cc1ccc2[nH]cc(CCCN3C(=O)c4ccccc4C3=O)c2c1	-0.2	102	-24	119	i	0.95	14
Cc1c(Cl)cccc1NCC(=O)NN=C1CCCC1	/	96	-337	63	i	0.98	4
CC(=O)C1=C(C)NC(=O)CC1c1ccc(Br)cc1 (stereo not given)	/	105	/	/	i	0.92	-5
COCCCn1c(=O)/c(=C\c2ccccc2OC(F)F)s/c1=C(/C#N)C(N)=O	/	93	-43	131	i	1.2	5
CCNCc1cc(Br)c(OCC(=O)Nc2ccccc2)c(OC)c1	-2.4	103	-7	61	i	0.86	1
Cc1cc(N2CCN(c3ccccn3)CC2)n2cc(-c3ccccc3)nc2n1	-0.2	98	20	83	i	0.78	0
CCN(CC)S(=O)(=O)c1ccc(C(=O)Nc2cc(C)cc(C)c2)cc1	-2.1	145	19	150	i	0.94	-2
O=C(Nc1nc(-c2ccccc2)cs1)c1ccc(=O)[nH]c1	/	98	/	/	i	0.99	3
Cc1cc(C(F)(F)F)n2nc(-c3sccc3-n3cccc3)cc2n1	-3.3	104	34	127	/	/	-4
O=C(O)c1cccc(NC(=O)c2cccc(S(=O)(=O)N3CCCCC3)c2)c1	-2.0	98	/	/	i	0.91	7
OCCN1CCN(CCOc2cccc(Cl)c2)CC1	-1.9	106	/	/	i	0.92	-1
COc1ccc(NC(=O)c2ccc3nc[nH]c3c2)c(OC)c1	/	101	/	/	i	0.88	-3
N#C/C(=C/c1ccc(N2CCCCC2)o1)C(=O)NCCc1c[nH]c2ccccc12	-1.2	112	-257	93	/	/	-10

Pulled by compound from the list above (2):
SMILES	GALR2 agonist	RGS16-Gao	INS promoter inh	INS promoter inh cell count	HSV augment	HSV augment primary fold	PKD1 inh
OCCN1CCN(CCOc2cccc(Cl)c2)CC1	-1.9	106	/	/	i	0.92	-1
c1ccc(-c2n[nH]c3ccccc23)cc1	-1.8	114	-135	89	i	1.1	90*

As entered above.
Result of `CCN(CC)S(=O)(=O)c1ccc(C(=O)Nc2cc(C)cc(C)c2)cc1` under INS promoter inh: 19
Result of `Cc1cc(C(F)(F)F)n2nc(-c3sccc3-n3cccc3)cc2n1` under PKD1 inh: -4

New compounds follow.
SMILES	GALR2 agonist	RGS16-Gao	INS promoter inh	INS promoter inh cell count	HSV augment	HSV augment primary fold	PKD1 inh
Cc1cccc(-n2cc(-c3ccccc3)c3c(=O)[nH]cnc32)c1	-0.8	97	3	81	i	0.91	-4
COc1cc(SC)ccc1C(=O)Nc1ccc2c(c1)OCCO2	0.5	99	/	/	i	0.95	-4
O=C(COC(=O)c1cccc2c1C(=O)c1ccccc1C2=O)NC1CCCCC1	0.9	97	/	/	i	0.98	-3
Cc1cc(C)nc(SCC(=O)Nn2cnnc2)n1	-1.2	105	/	/	/	/	-13
COc1ccc2c(c1)SC(C)CC2=O (stereo not given)	-2.8	56	27	106	i	0.95	-1
CN1CCN(NC(=O)c2cc(Br)ccc2Cl)CC1	/	99	53	59	i	0.9	-7
O=C(CN1C(=O)/C(=C/c2ccccc2)SC1=S)Nc1cccnc1	/	114	/	/	i	0.95	4
CC(CN1CCOCC1)OC(=O)C(c1ccccc1)c1ccccc1 (stereo not given)	0.0	82	30	117	i	0.98	-7
O=C(/C=C/c1ccc(Cl)cc1)N1CCN(c2ncccn2)CC1	-3.9	100	-4	113	i	1	3
COc1ccc(C2C(C(=O)NCc3cccnc3)c3ccccc3C(=O)N2C)cc1OC (stereo not given)	-1.5	105	-29	98	i	0.99	-3
O=C(OC1CCOC1=O)c1cc(-c2ccc(Br)cc2)nc2ccccc12 (stereo not given)	0.6	101	-46	34	i	1.2	-7
CCCc1cc(=O)[nH]c(SCc2cc(Cl)ccc2OC(F)F)n1	-1.6	97	35	100	i	0.89	5
NS(=O)(=O)c1ccc(NC(=O)/C=C/c2ccc3c(c2)OCO3)cc1	/	106	13	62	i	0.93	-4

Hits appear at their usual frequency; overall some 1.3% were active at least once.
